Compound activity deposited in PubChem by National Center for Advancing Translational Sciences (NCATS).
PINK1 expr mod – modulators of PINK1 expression | PINK1 immunofluorescence, high-content cytometry, 24 h | Potency, µM (doses to about 76.6 µM), for inactives: top-dose activation (PINK1 increase), actives largely listed as activators | hit rate 0.2% among 410,000 | AID 624263; active = well fitted activation curve with a large enough effect; inconclusive = small, poorly fitted or top-dose-only effect; inactive = flat fitted curve, though single readings scatter; cell line not stated here;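 further: potency means the concentration at half of the fitted maximal effect; % of control where 0% means no effect; nearly all actives have a fitted effect of over 65% in size; a mitochondrial uncoupler was the plate control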
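Compound titrations (5 concentrations, 24 h) on a stable cell line; DMSO and CCCP controls. Endpoint: fixed-cell PINK1 immunofluorescence with mitochondrial, cell and nuclear markers, scanned by microplate cytometer.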
Sfp inh – inhibitors of Bacillus subtilis Sfp phosphopantetheinyl transferase. Biochemical Sfp PPTase activity, qHTS. Potency, µM, without a hit: max response, negative = inhibition, most hits filed as inhibitors. hit rate 3.5% among 310,000. AID 1490; active means well fitted inhibition curve with a large enough effect; inconclusive means small, poorly fitted or top-dose-only effect, or another doubt; inactive means no such curve, though single readings can be large or run the other way;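 further: the enzyme is Sfp with the accession as filed and its product quenches rhodamine fluorescence; potency means the concentration at half of the fitted maximal effect; 0% = enzyme reaction without inhibitor and -100% = no enzyme wells; top concentration of the series not given in the record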
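Sfp 15 nM + cpd, 15 min RT; start w/ rhodamine-CoA 5 uM, BHQ-2-YbbR 12.5 uM (final); 50 mM Hepes pH 7.6, 10 mM MgCl2, 0.01% NP-40, 0.01% BSA; read 525/598 nm at 0 and 30 min.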
Six1-Eya2 blk – blocks human Six1 binding to Eya2. AlphaScreen GST-Six1/His-Eya2 binding, biochemical; active compounds read low; control for the full effect not named in the record. activity change, % (no concentration beside the values). hit rate 0.56% among 360,000. AID 651725; in the data active = activity change below about -65%; inconclusive = about -30% to -65%; inactive = above about -30%; further: on the % scale 0 is the no-effect control and ±100 the full control effect
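AlphaScreen with GST-Six1 and His-Eya2 (5X mix: 250 nM and 500 nM), glutathione donor and nickel acceptor beads; buffer 50 mM Tris pH 8.0, 300 mM NaCl, 1 mM TCEP; 1 h at 37 C in the dark.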
D2 potentiator – human D2 receptor positive allosteric modulation; DiscoveRx D2 beta-arrestin cells, luminescence, 90 min; 100% = 57 uM dopamine signal; potentiation, % (concentration not given with the values); hit rate 0.23% among 360,000; AID 624464; active = potentiation of 50% or more; inconclusive = 30% to 50%; inactive = 30% or less;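 further: compound concentration not given in the record; tested on top of an EC20 dose of dopamine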
Target sequence (P14416 whole entry, looked up): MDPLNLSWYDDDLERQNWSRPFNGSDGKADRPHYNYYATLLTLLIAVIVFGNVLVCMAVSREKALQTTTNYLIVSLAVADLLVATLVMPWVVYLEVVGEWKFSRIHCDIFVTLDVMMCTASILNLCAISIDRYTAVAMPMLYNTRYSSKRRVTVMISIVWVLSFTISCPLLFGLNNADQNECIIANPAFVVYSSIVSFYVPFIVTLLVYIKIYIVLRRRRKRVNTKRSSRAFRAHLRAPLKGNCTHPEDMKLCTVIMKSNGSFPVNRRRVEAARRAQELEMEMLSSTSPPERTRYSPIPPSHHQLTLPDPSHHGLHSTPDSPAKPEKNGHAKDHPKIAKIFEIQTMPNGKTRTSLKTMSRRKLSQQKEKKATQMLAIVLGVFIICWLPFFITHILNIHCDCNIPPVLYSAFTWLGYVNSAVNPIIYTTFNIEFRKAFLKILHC
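PathHunter D2 cells, attached overnight at 37 deg C, received compound in DMSO plus dopamine at EC20 (50 nM final) for 90 min at 37 deg C. Beta-arrestin recruitment was read as luminescence after 1 h with detection reagent at ambient temperature.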
TRPV1 PAM – enhances activation of the human vanilloid receptor TRPV1 | TRPV1-expressing cells, Fluo-8 calcium influx, capsaicin EC20 potentiation; host cell line not named in the record; control for the full effect not named in the record | Q8NER1 | hit rate 0.02% among 320,000 | potentiation, % at 8.33 µM; active means potentiation above 80%; inconclusive means 30% to 80%; inactive means below 30%; further: 0% is about no effect
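Fluo-8 calcium influx in TRPV1-expressing cells, kinetic read (ex 480/em 520 nm). Compound added and read 3 min for agonist activity, followed by capsaicin at EC20 final and 2 min further read for enhancement.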
D2 agonist – agonists of human D2 dopamine receptor (beta-arrestin); hit rate 0.084% among 360,000; DiscoveRx PathHunter D2 beta-arrestin, luminescence, 90 min; 100% = 57 uM dopamine signal; activation, % (concentration not given with the values); in the data active = activation above about 40%; inconclusive = about 15% to 40%; inactive = below about 15%; further: compound concentration not given in the record; the text of the record calls up to 30% inactive
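Agonist mode: compounds alone added to overnight-plated D2 PathHunter cells for 90 min at 37 C, with 57 uM final dopamine (EC100) defining full response. Beta-arrestin recruitment detected by chemiluminescent reagent, read after 1 h at ambient temperature.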
CtBP-E1A inh – inhibitors of CtBP/E1A interaction; AlphaScreen GST-E1A/His-CtBP binding, 1536-well; active compounds read low; control for the full effect not named in the record; activity change, % (concentration not given with the values); hit rate 0.49% among 340,000; AID 651724; in the data active means activity change below about -65%; inconclusive means about -30% to -65%; inactive means above about -30%; further: on the % scale 0 is the no-effect control and ±100 the full control effect
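GST-E1A and His-tagged CtBP (125 nM each as 5X stock) were preincubated with pin-transferred compound for 2 h at 37 °C in the dark, then glutathione donor and nickel acceptor beads were added for 1 h before AlphaScreen reading.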
* hit, by the source's call; ? = inconclusive; . = not tested or not shown; & = joins results of further samples; [ ] = remark or other dose.

SMILES | PINK1 expr mod | Sfp inh | Six1-Eya2 blk | D2 potentiator | TRPV1 PAM | D2 agonist | CtBP-E1A inh
CC1CCN(C2=NC(=O)/C(=C/c3cn(-c4ccccc4)nc3-c3cccc(S(=O)(=O)N(C)C)c3)S2)CC1 | -1.0% | -8% | -7 | 0 | 25 | -5.7 | 2
CCC(c1nnc(SCC(=O)N2CC(=O)Nc3ccccc32)n1Cc1ccccc1)N(C)C (stereo unspecified) | -1.6% | -2% | 2 | -21 | -1 | 1.1 | 9
COc1ccc(-c2nc(=S)[nH][nH]2)cc1 | 4.0% | ? | -6 | -21 | -3 | 2.4 | 0
CNc1n[nH]c(=S)s1 | -0.6% | 35µM* | 0 | -12 | 5 | -3.3 | -3
CSc1ccc(Cl)c(C(=O)N2CCN(c3ncccn3)CC2)c1 | 0.7% | . | 2 | -2 | 3 | 5.8 | -3
O=c1cc(CN2CCN(c3ccc(O)cc3)CC2)nc2scc(-c3ccccc3)n12 | -0.5% | 56µM* | -3 | -1 | 8 | 10 | 3
CCOC(=O)N1CCN(C(=O)CN(CC)S(=O)(=O)c2cc(C)ccc2OC)CC1 | -0.8% | -3% | 2 | -6 | 24 | 3.2 | -7
S=c1[nH]nc(-c2ccccc2)n1/N=C/c1c[nH]c2ccccc12 | 17% | 20% | 1 | -9 | -2 | -2.7 | -10
O=C(CCN1C(=O)c2ccccc2C1=O)Nc1sc2c(c1C(=O)NCC1CCCO1)CCC2 (stereo unspecified) | 1.0% | -10% | 1 | 5 | -12 | -1.6 | 2
COC(=O)c1ccc(OCC(=O)NC2CCCCCCC2)cc1 | 3.3% | . | 0 | -7 | . | -4.6 | 4
C/C(=N/NC(=O)c1ccn(C)n1)c1ccncc1 | 0.1% | 6% | 5 | 8 | -5 | 1.1 | .
COc1ccc(/C=C(/NC(=O)c2ccccc2)C(=O)N/N=C/c2sccc2C)cc1 | 0.1% | 4% | -5 | -4 | 6 | -4.3 | -15
CCOC(=O)N1CCN(C(=O)C2CCCN(S(=O)(=O)c3ccc(OCC)cc3)C2)CC1 (stereo unspecified) | 2.2% | 3% | -2 | -9 | -7 | -0.4 | 2
CCc1noc(C)c1C(=O)NCCc1c[nH]c2ccccc12 | -1.7% | . | 0 | -6 | 1 | 1.2 | 6
Oc1ccc(Oc2ccc(Oc3ccc(O)cc3)cc2)cc1 | 0.2% | 1% | -10 | 3 | ? | 5.9 | .
COc1ccc(CCNC(=O)/C=C/C(=O)O)cc1OC | -2.0% | -6% | 12 | 0 | -17 | -2.4 | 6
Cc1cccc(-n2c(SCC(=O)Nc3ncc(Cl)cc3Cl)nc3ccccc32)c1 | 1.4% | -6% | -1 | -9 | 18 | 0.6 | -1
C[C@@H](C(=O)N1CCNCC1)n1cc(CCC(=O)O)nn1 | 3.9% | 4% | -8 | -5 | ? | -2.6 | -1
COc1ccc(C2CC(c3ccc(OC)c(OC)c3)=NN2S(C)(=O)=O)cc1 (stereo unspecified) | 1.1% | 2% | -2 | -2 | 0 | 5.1 | -1
O=c1c2ccccc2nc(/C=C/c2cccc([N+](=O)[O-])c2)n1CCO | 4.7% | 3% | -18 | 0 | -11 | -2.8 | -28
COc1ccc(C(=O)[C@H]2[C@H]3C(=O)N(c4ccccc4)C(=O)[C@H]3C3C=CC=NN32)cc1 (stereo partly specified) | 0.6% | ? | -5 | -3 | 5 | -3.3 | -10
CC(=O)Nc1ccc(NC(=S)NC(=O)C2CCCC2)cc1 | 0.3% | 12% | 6 | -14 | 18 | ? | 10
COCCn1c(SCC(=O)N2CCCCC2)nc2cccnc21 | -0.6% | 16% | 0 | 2 | 3 | -1.6 | 4
COc1ccc(NC(=O)CN(C)C(=O)c2csc3c2CCCC3)cc1 | -1.2% | . | 23 | -19 | -1 | -6.0 | 6
Cc1nnc(SCC(=O)Nc2ccc(N3CCOCC3)cc2)n1Cc1ccccc1 | 0.7% | . | 2 | -2 | -7 | 2.2 | 0
Cc1cc2cc(CNC(=S)NCc3ccccc3)ccc2n1C | -0.7% | 11% | -22 | -3 | -16 | 2.3 | ?
CCc1ccc(NC(=O)NCCN2CCCCC2)cc1 | 0.5% | 4% | 6 | -5 | 2 | -5.3 | -3
CCOc1ccc(OCC)c(NC(=O)CCn2c(=O)oc3ccccc32)c1 | -1.4% | 7% | 0 | 4 | -11 | -1.7 | 2
CSc1ccc(CN2C(=O)C(C)ON=C2c2ccccc2F)cc1 (stereo unspecified) | 2.1% | . | -4 | -5 | . | 4.8 | 1
CCOc1ccc(C2C(C#N)=C(N)Oc3cc(C)[nH]c(=O)c32)cc1OC (stereo unspecified) | -0.1% | 13% | 6 | 1 | 2 | -0.2 | -9
COC(=O)CC(NS(=O)(=O)c1cccs1)c1ccc2c(c1)OCO2 (stereo unspecified) | 0.5% | 11% | -1 | -7 | -1 | 3.5 | 0
O=C(CC1=NC2(CCCC2)Cc2ccccc21)N1CCOCC1 | . | -18% | -3 | -4 | 8 | -5.5 | 2
CCCCNC(=O)COn1nnc2ccc(S(=O)(=O)N3CCOCC3)cc21 | 2.9% | . | 3 | -8 | -6 | -4.9 | 6
CCCCNC(=O)Nc1nnc(-c2ccc(Cl)cc2)o1 | 0.2% | 2% | 0 | 7 | -3 | -4.4 | 4
CCNC(=O)Nn1c(C)nnc1C | 1.4% | 6% | 7 | 8 | 11 | 0.2 | 15
COc1ccc(NS(=O)(=O)c2cccc(C(=O)NCC(c3ccc(OC)cc3)N3CCCC3)c2)cc1 (stereo unspecified) | 0.0% | . | -10 | -16 | 14 | -4.7 | -4
CCOC(=O)[C@]12CCC=C1N(CCC1=CCCCC1)C(=O)[C@H](CC(=O)NCCCCc1ccccc1)C2 | 0.9% | . | 2 | . | . | . | 3
COc1ccc(-c2ccccc2)cc1NC(=O)[C@@H]1O[C@H](CO)[C@@H](O)[C@H]1O | 2.1% | . | 9 | -8 | . | -2.7 | 7
O=C(c1ccccc1F)N1CCN(S(=O)(=O)c2ccc3ccccc3c2)CC1 | 0.4% | 9% | -1 | 1 | -7 | 2.6 | 2
CC(=O)c1c(OC(=O)c2ccccc2Br)ccc2c(C)cc(=O)oc12 | 2.7% | -65% | -7 | -6 | -5 | -4.5 | -3
O=C(COC(=O)CNC(=O)c1ccccc1)NC1CCCC1 | -0.6% | . | -3 | -3 | 3 | 0.9 | 4
COc1cccc(-c2nc(N3CCN(C)CC3)c3ccccc3n2)c1O | -1.9% | -8% | ? | -17 | 0 | -5.5 | ?
COC(=O)C1=C(N)Oc2cc(C)n(Cc3cccnc3)c(=O)c2C1c1ccccc1OC (stereo unspecified) | 1.1% | 3% | 5 | 4 | 9 | -3.5 | 1
Cc1ccc(C2(C)NC(=O)N(CC(=O)NC(C)c3ccccc3)C2=O)cc1 (stereo unspecified) | -2.7% | 20% | -12 | -4 | 15 | -4.1 | -17
C[C@@H](O)Cc1cn(CC(=O)NCCCCCCCCCCC(=O)N2CCNCC2)nn1 | 0.0% | . | -15 | -4 | ? | -4.5 | -10
CCOc1ncccc1C(=O)OCC(=O)c1c[nH]c2ccccc12 | -1.0% | . | -3 | 0 | 3 | -1.2 | 0
CCOc1ccc(NC(=O)Nc2ccccc2C(N)=O)cc1 | -2.3% | -6% | -12 | -6 | -10 | 2.5 | 0
CC1=NN(S(=O)(=O)c2ccc(C)cc2)C(=O)c2ccccc2O1 | 2.2% | 10% | 2 | -16 | 1 | -4.3 | .
Cc1ccc2c(c1)N(CCCC(=O)Nc1cccc(C(F)(F)F)c1)C(=O)CO2 | 2.1%&-0.5% | 15% | -7 | -6 | -8 | -1.7 | 3
O=C(C1CCCCC1)N1CCC2CC1c1cc(Cl)ccc12 (stereo unspecified) | 0.4% | . | 1 | . | . | -0.8 | 1
Next records:
SMILES | PINK1 expr mod | Sfp inh | Six1-Eya2 blk | D2 potentiator | TRPV1 PAM | D2 agonist | CtBP-E1A inh
O=C(COc1ccccc1F)Nc1nnc(-c2ccncc2)s1 | -0.7% | -9% | -1 | 4 | 8 | 3.1 | -10
CCOC(=O)N1CCc2c(sc(NC(=O)C3=COCCO3)c2C(N)=O)C1 | ? | 10% | -2 | 25 | 9 | -2.5 | 2
COc1ccc(C(=O)OCC(=O)NC(C)CCc2ccccc2)cc1OC (stereo unspecified) | 0.5% | 6% | -10 | -2 | -2 | -3.1 | -1
CC(C)(C)C(=O)N1CCN(c2nc3ccc(Br)cc3s2)CC1 | 3.2% | 20% | 1 | -5 | 8 | -1.2 | .
CC(/C=N/n1c(-c2ccc(C)cc2)n[nH]c1=S)=C\c1ccco1 | 7.0% | 50µM* | -10 | -34 | -7 | -2.6 | -14
Cc1ccc(N2C(=O)CC(Sc3nccc(C)n3)C2=O)cc1 (stereo unspecified) | 2.6% | 10% | 2 | -3 | -1 | 4.3 | 10
Cc1c(NC(=O)Cn2ccc([N+](=O)[O-])n2)c(=O)n(-c2ccccc2)n1C | 4.4%[38.3 µM] | -18% | -11 | -5 | 10 | -2.5 | -6
Cc1ccc(CC2SC(=Nc3ccccc3)N(c3ccccc3)C2=O)cc1 (stereo unspecified) | -0.1% | -1% | 29 | -26 | -3 | -3.9 | 6
CC(CN1CCCCC1)OC(=O)c1cccc(F)c1 (stereo unspecified) | 0.9% | 0% | 6 | -22 | 9 | 0.1 | 1
O=C1CC(N(Cc2ccco2)C(=O)Nc2ccc(F)cc2)C(=O)N1c1ccc(F)cc1 (stereo unspecified) | 1.2%[38.3 µM] | -13% | -4 | -4 | -10 | 2.4 | 2
COc1ccc(C(CNC(=O)Cc2ccc(-c3ccccc3)cc2)N(C)C)cc1 (stereo unspecified) | -0.5% | 4% | -3 | -11 | -12 | -1.7 | 1

Profiles as entered above.
Record of COc1ccc(C(=O)OCC(=O)NC(C)CCc2ccccc2)cc1OC (stereo unspecified) → PINK1 expr mod = 0.5%; Sfp inh = 6%; Six1-Eya2 blk = -10; D2 potentiator = -2; TRPV1 PAM = -2; D2 agonist = -3.1; CtBP-E1A inh = -1
Record of CCOC(=O)N1CCc2c(sc(NC(=O)C3=COCCO3)c2C(N)=O)C1 → PINK1 expr mod = ?; Sfp inh = 10%; Six1-Eya2 blk = -2; D2 potentiator = 25; TRPV1 PAM = 9; D2 agonist = -2.5; CtBP-E1A inh = 2
